High-throughput results (PubChem)
NPYLR7 ag: agonists of mosquito NPYLR7 receptor, primary screen, cell-based, Aedes aegypti, calcium fluorescence, mosquito biting behavior. Aedes aegypti neuropeptide Y-like receptor 7 (NPYLR7). HEK293T NPYLR7/Galpha15, GCaMP6s calcium fluorescence. activation, % at 10 µM. 270,000 tested, 0.15% active. AID 1259423, 2018; in the data active = activation above about 40%;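 also: 0% = vehicle and 100% = reference agonist at the receptor; some compounds past the cut are filed as inactive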
NPYLR7 ag max-min: also measured in NPYLR7 ag; calls as there; activation, %; measured here: Max-Min RFU normalised activation; some inactives read as strong as hits;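 span of the calcium signal over five minutes; 0% = vehicle and 100% = native peptide agonist; compound fluorescence can raise it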
The depositor's hits bear a star; & = joins results of further samples. A portion of the library (hit frequency here may not be typical).

SMILES	NPYLR7 ag	NPYLR7 ag max-min
C=CCN(Cc1ccccn1)Cc1ccccc1C	-2.4	-1.1
Cc1cc2c(c(=O)n1Cc1ccc3c(c1)OCO3)C(c1ccccc1)C(C#N)C(=N)O2 (centres undefined)	-2.0	1.6
CC(NC(=O)c1ccoc1)C(=O)Nc1cccc(CN(C)C(=O)OC(C)(C)C)c1 (centres undefined)	8.6	2.7
Cc1ccc(-c2cc(C(=O)Nc3ccc(C)c(C)c3)n(-c3ccccc3Cl)n2)o1	22.9	28.8
COC(=O)NC(CC(C)C)C(=O)OCc1cc(Cl)ccn1 (centres undefined)	2.1&-15.2	1.1&-14.0
C=CCn1c2nc3ccccc3nc2c2cccc(C)c21	-6.6	-11.7
CC(C)CC(C(=O)N1CCOCC1)N1C(=O)CSC1c1cccc(F)c1 (centres undefined)	8.1	14.9
O=C(O)c1cc(-c2ccccc2F)cc(S(=O)(=O)NCC2CCCO2)c1 (centres undefined)	3.5	0.4
CCC(=O)Nc1c(-c2cc(=O)oc3cc(C)c(Cl)cc23)oc2ccccc12	-4.2	-4.4
S=c1[nH]c2ccc(Cl)cc2o1	4.1	4.8
CCOC(=O)C(c1ccc(OC)c(OC)c1)C1C=CC(NC(=O)c2ccccc2OC(F)(F)F)C1 (centres undefined)	1.0	-2.1
CC(=O)N1CCN(C(=O)c2coc(CN(Cc3ccc(F)cc3)Cc3ccc(C)cc3C)n2)CC1	16.0	30.4
COCc1cccc(-c2ncc(OCCN3CCCC3=O)nc2NC(=O)c2cc3ccccc3s2)c1	0.0	-13.8
CCOC(=O)C(=O)N(Cc1ccccc1)[C@@H]1C[C@@H]2COCC[C@]2(c2ccccc2)C1	12.8	20.4
O=C(O)c1c[nH]c2cc(F)ccc12	9.7	4.1

Some of the entries so far, with bars between the fields.
Compound | NPYLR7 ag | NPYLR7 ag max-min
Cc1cc2c(c(=O)n1Cc1ccc3c(c1)OCO3)C(c1ccccc1)C(C#N)C(=N)O2 (centres undefined) | -2.0 | 1.6
CC(NC(=O)c1ccoc1)C(=O)Nc1cccc(CN(C)C(=O)OC(C)(C)C)c1 (centres undefined) | 8.6 | 2.7
Cc1ccc(-c2cc(C(=O)Nc3ccc(C)c(C)c3)n(-c3ccccc3Cl)n2)o1 | 22.9 | 28.8
COC(=O)NC(CC(C)C)C(=O)OCc1cc(Cl)ccn1 (centres undefined) | 2.1&-15.2 | 1.1&-14.0

Later entries:
SMILES	NPYLR7 ag	NPYLR7 ag max-min
COc1ccc(OC)c(-c2nc(CN(C)Cc3noc(C)n3)c(C)o2)c1	4.5	-5.8
O=C(CN1C(=O)NC2(CCOc3ccccc32)C1=O)NCC(=O)Nc1ccc(F)cc1 (centres undefined)	1.9	2.3
COCCc1noc(CN(C)C[C@]2(O)CCCN3CCCC[C@@H]32)n1	-1.4	-3.6
CC(C)n1c(/C=C/[C@@H](O)C[C@@H](O)CC(=O)O)c(-c2ccc(F)cc2)c2ccccc21	-1.8&-5.1	-6.7&-9.5
O=C(NNC(=O)c1ccc(=O)n(Cc2ccccc2)c1)c1ccccc1	-10.7	-19.3
CCCCc1ccc(NC(=O)CSc2nc(=O)n(CCN(C)C)c3c2CCC3)cc1	-3.9	-5.8
CCOC(=O)C1CCCN(Cc2c(C(=O)N3CCCCCCC3)nc3sccn23)C1 (centres undefined)	20.8	6.0
Cc1cccc(Nc2nc(OCC#N)nc(N(C)C)n2)c1	4.2	2.4
CCCCSc1nnc(CSc2ncccn2)n1CCc1ccccc1	2.5	6.7
COc1ccc(CCN2C3CCC2CC(NC(=O)c2c(F)c(F)c(F)c(F)c2F)C3)cc1OC (centres undefined)	1.8	-0.7
Cc1cccc(OC2CCN(C(=O)c3cn(Cc4c(F)cccc4F)nn3)CC2)c1	7.9	5.3
CC(=O)Nc1ccc(CNCC2(N3CCCCC3)Cc3ccccc3C2)cc1	3.4	-1.2
Cc1cc(C)c2c(n1)nn1c(NCCc3ccccc3)cc(C)nc21	-0.8	18.4
c1cncc(OCCCn2cnnc2)c1	2.1	-2.1
O=C(NCc1ccncc1)C1(c2cccc(C(F)(F)F)c2)CC1	2.7	3.0

Quoted from above (2 entries):
SMILES	NPYLR7 ag	NPYLR7 ag max-min
c1cncc(OCCCn2cnnc2)c1	2.1	-2.1
O=C(NCc1ccncc1)C1(c2cccc(C(F)(F)F)c2)CC1	2.7	3.0

Next part.
SMILES	NPYLR7 ag	NPYLR7 ag max-min
CCOC(=O)COn1c(=O)c(-c2ccc(F)cc2)[n+]([O-])c2ccccc21	1.8	-0.8
CN(C)c1ccc(C=C2SC(=S)NC2=O)s1	16.4	9.1
CC1(C(=O)Nc2cnc3ccccc3c2)CCN1C1Cc2ccccc2C1 (centres undefined)	3.8	-1.0
c1ccc(-c2nnc(CSc3nnc(-c4ccccc4)o3)o2)cc1	-2.4	-6.7
Cc1ccc2nc(NC(=O)CSc3nc(=O)n(CCN4CCOCC4)c4c3CCC4)sc2c1	3.2	-1.4
O=C(NCC1CCS(=O)(=O)C1)N1CC=C(c2ccccc2)CC1 (centres undefined)	3.1	0.4
CCCN1CCC(Cc2noc(C3(C)CC(C)=NO3)n2)CC1 (centres undefined)	-11.0	-17.8
O=C(NCCCS(=O)(=O)N1CCN(c2ccccc2)CC1)c1ccc[nH]c1=O	-1.8	-2.3
CC1=NC2=C(C(=O)CCC2)C(c2cccc(Cl)c2)C1C(=O)OCCOc1ccccc1 (centres undefined)	-4.4	-10.5
Cc1ccc(C(=O)NCCn2c(C)cc3ccccc32)cc1C	-1.6	-5.5
CC(C(=O)Nc1ccc(C23CC4CC(CC(C4)C2)C3)cc1)n1cncn1 (centres undefined)	9.6	3.3
Cc1cnc(C(=O)N2CCC(CCC(=O)Nc3ccc4c(c3)OCCO4)CC2)cn1	16.8	4.0
CC(C)CCN=C1NN=C(C23CC4CC(CC(C4)C2)C3)CS1	-1.5	-4.4
COC(=O)NCCCCNC(=O)OC	4.7	6.4
Cc1ccc(S(=O)(=O)N(C)C2CCC(C)CC2)c(Cl)c1 (centres undefined)	4.4	1.5
C[C@H](C(=O)NCCCO)N1Cc2ccc(N3CCOCC3)nc2C1=O	10.5	5.2
COCCN(CC(=O)N1CC(=O)N(c2ccc(F)cc2)C1)C(=O)Nc1c(C(C)C)cccc1C(C)C	3.8	13.6
Cc1ccc(NC(C)(C(=O)N2CCC(N)CC2)c2ccccc2)cc1 (centres undefined)	15.8	3.4
COCCN(Cc1ccc2c(C)cc(=O)oc2c1)Cc1ccccc1F	0.6	-0.7
COc1cccc(C(=O)NCc2nnc(SCC(=O)N3CCc4ccccc43)n2-c2cccc(C(F)(F)F)c2)c1	15.3	13.9
Cc1ccc(N2CCN(S(=O)(=O)c3ccccc3)C(C)C2=O)cc1Cl (centres undefined)	0.5	1.1
O=C(C=Cc1ccco1)NC12CC3CC(CC(C3)C1)C2	5.2	2.3
CC(C)n1cc(CN2CCCC(C(=O)c3ccc(-c4ccccc4)cc3)C2)cn1 (centres undefined)	9.6	-7.3
CCOC(=O)N1CCN(C2CCCN(C(=O)c3sccc3Cl)C2)CC1 (centres undefined)	3.1	3.1
COc1ccc(Cc2nnc3n2N(C(C)=O)C(c2ccc(F)cc2)=C(C(C)=O)S3)cc1	3.5	1.3
Cc1ccccc1CCC1CCCN(C(=O)CCn2ccc(=O)[nH]c2=O)C1 (centres undefined)	-2.8	-3.3
CC(C)Cn1cncc1CN1CCOC(Cc2cccc(C(F)(F)F)c2)C1 (centres undefined)	4.8	2.2
CC(=O)c1ccc(C(=O)N2CCCC(CCC(=O)NCc3ccccc3Cl)C2)cc1 (centres undefined)	0.2	1.6
O=C(CCc1cn(S(=O)(=O)c2cccs2)c2ccccc12)NCC(=O)Nc1ccc(NC(=O)c2ccccc2)cc1	-3.7	-8.7
Cc1ccc(-n2c(C)c(C)n3c4c(=O)n(CCN5CCOCC5)c(=O)n(C)c4nc23)c(C)c1	-0.1	-0.8

Random excerpt: 4 entries already listed
SMILES	NPYLR7 ag	NPYLR7 ag max-min
COc1ccc(Cc2nnc3n2N(C(C)=O)C(c2ccc(F)cc2)=C(C(C)=O)S3)cc1	3.5	1.3
O=C(CCc1cn(S(=O)(=O)c2cccs2)c2ccccc12)NCC(=O)Nc1ccc(NC(=O)c2ccccc2)cc1	-3.7	-8.7
C[C@H](C(=O)NCCCO)N1Cc2ccc(N3CCOCC3)nc2C1=O	10.5	5.2
Cc1ccc(NC(C)(C(=O)N2CCC(N)CC2)c2ccccc2)cc1 (centres undefined)	15.8	3.4

An excerpt of these results, with each value named.
> COCCN(CC(=O)N1CC(=O)N(c2ccc(F)cc2)C1)C(=O)Nc1c(C(C)C)cccc1C(C)C
  NPYLR7 ag = 3.8
  NPYLR7 ag max-min = 13.6

> COCCN(Cc1ccc2c(C)cc(=O)oc2c1)Cc1ccccc1F
  NPYLR7 ag = 0.6
  NPYLR7 ag max-min = -0.7

> Cc1ccc(NC(C)(C(=O)N2CCC(N)CC2)c2ccccc2)cc1 (centres undefined)
  NPYLR7 ag = 15.8
  NPYLR7 ag max-min = 3.4

> CCOC(=O)N1CCN(C2CCCN(C(=O)c3sccc3Cl)C2)CC1 (centres undefined)
  NPYLR7 ag = 3.1
  NPYLR7 ag max-min = 3.1

Next section:
SMILES	NPYLR7 ag	NPYLR7 ag max-min
CCC1(CNCc2ccc(COC)cc2)COC1	-2.0	-5.1
CCc1nnc(NC(=O)Nc2cc(F)cc(OC)c2)s1	0.1	-1.2
C=CC(=O)NCc1ccc(-c2ncc(-c3cc(OC)ccc3OC)[nH]2)cc1	1.0	3.2
CCC(C(=O)OC)n1cnc2c(nnn2-c2cccc(F)c2)c1=O (centres undefined)	-4.5	-7.2
COc1cc2c(cc1OC)CN(C1CCCN(Cc3cnc(SC)nc3)C1)CC2 (centres undefined)	1.0	-3.9
O=C(CN1Cc2ccccc2OC(c2ccccc2F)C1)N1CCCCC1c1ccccn1 (centres undefined)	22.2	4.7
CCOc1ccc(Cc2nccc3cc(OCC)c(OCC)cc23)cc1OCC	-14.4&-11.9&-0.6	-16.2&-16.3&-3.3
CCCCCC(C)n1[nH]c(=O)c2c(C)cc(C)nc21 (centres undefined)	-1.6	-1.7
C=CCn1c(SC(F)F)nc2scc(-c3ccco3)c2c1=O	2.8	9.9
S=c1oc(-c2sc3ccccc3c2Cl)nn1CN1CCOCC1	1.8	62.3
CCc1ccc2nc(N(Cc3ccccn3)C(=O)C3=COCCO3)sc2c1	-2.9	-6.9
COC(=O)CNC(c1ccccc1)c1cc(C)ccc1NC(=O)c1cc(OC)c(OC)c(OC)c1 (centres undefined)	-4.3	-5.7
CC(C)CCCC1CN(C(=O)c2cccc(-n3cnnc3)n2)CCO1 (centres undefined)	4.3	-0.1
CCOC(=O)CNC(=O)N(CCCOC)CC(=O)N(CCc1ccc(OC)c(OC)c1)Cc1sccc1C	18.5	20.4
O=C1CC(c2ccsc2)c2snc(-c3ccccc3)c2N1 (centres undefined)	-3.9	-7.8
Cc1nn(-c2ccc(Cl)c(Cl)c2)c(C)c1CC(=O)NCC1CSCCS1 (centres undefined)	0.6	-0.5
Cc1ccc(-c2cn[nH]c2C2CCCN(C(=O)CCn3cccn3)C2)cc1 (centres undefined)	3.7	2.3
Cc1nn(-c2ccccc2)c(C)c1Sc1ccccc1	-11.7	-17.0
COc1ccc(-c2cc(C(=O)N3CCC(n4c(=O)[nH]c5ccccc54)CC3)nc3c(-c4ccccc4)c(C)nn23)cc1	5.9	29.0
COc1cccc(CN(Cc2nc(C(=O)NCCN(C)C)co2)C(C)C(C)C)c1 (centres undefined)	16.1	19.6
CCN(CC)c1ccc2cc(C(=O)Nc3c(F)cccc3F)c(=O)oc2c1	3.6	13.1
CC=CC=CC(=O)Nc1cc(OC)c(Cl)cc1OC	3.2	3.5
CNS(=O)(=O)c1ccc(NCc2ccccc2COc2ccccc2)c([N+](=O)[O-])c1	6.0	3.8
CCc1cccc(C)c1NC(=O)CN1C(=O)c2cccc3cccc1c23	7.9	5.4
CC(=O)Nc1ccc(S(=O)(=O)Oc2ccc(Cl)cc2CN(CC2CCCO2)C(=O)c2ccccc2Cl)cc1 (centres undefined)	19.5	28.1
Cc1cc(C)cc(CC(=O)N2CCC2(C)C(=O)NS(=O)(=O)c2ccccc2OC(F)(F)F)c1 (centres undefined)	0.9	0.2
CCOC(=O)C1CCN(C(=O)CC(c2ccc(OC)c(OC)c2)c2cn(C)c3ccccc23)CC1 (centres undefined)	3.0	8.2
COc1ccc(C)cc1NC(=O)CSc1ncc(S(=O)(=O)c2ccc(C)c(Cl)c2)c(=O)[nH]1	2.1	1.7
O=C(c1cccs1)N1CCN(C(C(=O)N2CCc3ccccc3C2)C2CCCC2)CC1 (centres undefined)	-1.8	1.8
COc1cccc(C(=O)N(Cc2ccc(OC)c(OCc3nc(CO)cs3)c2)C2CC2)c1	10.7	6.2
Cc1cc2nc(C(=O)N3CC(c4ccncc4)C3)cc(C)n2n1	3.6	1.1
CCC(=O)N1N=C(c2ccccc2NS(C)(=O)=O)CC1c1ccco1 (centres undefined)	11.6	17.2
